From PubChem BioAssay
YB-1 expression – YB-1 expression inhibition; delta delta Cp (YB-1 minus CDIP) (test concentration not listed); 30,000 compounds, 0.37% hits; U2OS, qRT-PCR YB-1 vs CDIP delta delta Cp, 16 h; active compounds read high; zero = DMSO, each unit about twofold;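 active means delta delta Cp rounded down to an integer at or above 3, about 3 SD of DMSO wells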;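 further: higher means less YB-1 transcript or more CDIP transcript relative to DMSO; stock transfer was 100 nL into about 100 µL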
PD-1 reverse act – activators reversing PD-1 mediated T-cell inhibition | 29,000 tested, under 10 active | activation, % (test concentration not listed) | primary human CD4 T cells, PD-L1 beads, CellTiter-Glo 96 h | AID 2316;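 active means replicate mean of 50% or more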;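 further: 0% = median vehicle wells and 100% = positive control; 100 nL library stock added to about 50 µL; numbers are from one replicate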
Shh pathway inh – blocks Sonic Hedgehog signaling | inhibition, % (concentration not given with the values) | Shh-LIGHT2 Gli-luciferase reporter, 30 h | 22,000 compounds, 2.1% hits;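 active means replicate mean of 65% or more; inconclusive means mean lower but half the replicates past it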;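 further: pathway switched on by Shh-conditioned medium diluted 1 in 25 in low serum; 100 nL library stock added to about 40 µL; 0% = median of neutral wells and 100% = positive control level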
MITF inhib – blocks MITF activity. inhibition, % (no concentration beside the values). AID 2240. TRPM1 promoter luciferase, luminescence, 24 h. 37,000 compounds, 0.28% hits;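 active means most replicates at 85% or more, or half of them and the mean; inconclusive means half reach 85% but not the mean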;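 further: human melanocyte line stably carrying TRPM1 promoter luciferase reporter; 0% = vehicle wells and 100% = a positive control; the first replicate is given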
Starred values were filed as active, the others as inactive; ? = inconclusive; · = no result given.

#	Structure	YB-1 expression	PD-1 reverse act	Shh pathway inh	MITF inhib
1	COC(=O)C1=CO[C@@H](O[C@@H]2O[C@H](CO)[C@@H](O)[C@H](O)[C@H]2O)[C@@H]2[C@@](C)(O)[C@@H](OC(=O)/C=C/c3ccc(O)cc3)C[C@]12O	0.71	0.3	0	?
2	O=C(OC1=CC(=O)c2cccc3cccc1c23)c1ccccc1	0.21	-4.1	-20	26
3	COc1cc(C(=O)NCc2ccc(OCCN(C)C)cc2)cc(OC)c1OC	0.32	2.7	25	-5
4	CCc1cccc(C(C)C)c1NS(=O)(=O)c1ccc(C)cc1	-0.32	-0.7	14	11
5	C[C@H](CO)N1C[C@H](C)[C@H](CN(C)C)Oc2ccc(NS(=O)(=O)c3ccc(F)cc3)cc2CC1=O	0.11	·	1	2
6	CCOC(=O)c1[nH]cnc1C(=O)Nc1ccc(C)cc1	-0.31	-0.7	-11	-18
7	NS(=O)(=O)c1cc2c(cc1C(F)(F)F)NCNS2(=O)=O	0.25	·	-28	-6
8	Cc1noc(C)c1NC(=O)N(C)C[C@@H]1Oc2c(NC(=O)C3CC3)cccc2C(=O)N([C@H](C)CO)C[C@H]1C	0.033	4.3	2	0
9	C[C@@H]1CN([C@H](C)CO)C(=O)c2cccc(NC(=O)CCCCCC(=O)Nc3ccccc3N)c2O[C@@H]1CN(C)Cc1ccc(C(F)(F)F)cc1	0.22	1.1	·	16
10	C/C=C1\C(O[C@@H]2O[C@H](CO)[C@@H](O)[C@H](O)[C@H]2O)OC=C(C(=O)OC)C1CC(=O)OC[C@@H]1[C@H](C)[C@@H](OC(=O)CC2C(C(=O)OC)=COC(O[C@@H]3O[C@H](CO)[C@@H](O)[C@H](O)[C@H]3O)/C2=C\C)C[C@H]1C(CO)CO (stereo partly drawn)	-0.42	·	-14	·
11	C[C@H]1CN([C@@H](C)CO)C(=O)c2cc(NS(=O)(=O)c3cccs3)ccc2O[C@@H]1CN(C)S(=O)(=O)c1ccccc1	0.1	·	·	1
12	CC(=O)Nc1ccc(C(=O)CSc2ncn[nH]2)cc1	·	-0.6	·	-23

Exported with two lines to a compound: entries from further up
Screens in order: YB-1 expression	PD-1 reverse act	Shh pathway inh	MITF inhib
[2] O=C(OC1=CC(=O)c2cccc3cccc1c23)c1ccccc1
    0.21	-4.1	-20	26
[3] COc1cc(C(=O)NCc2ccc(OCCN(C)C)cc2)cc(OC)c1OC
    0.32	2.7	25	-5
[4] CCc1cccc(C(C)C)c1NS(=O)(=O)c1ccc(C)cc1
    -0.32	-0.7	14	11
[5] C[C@H](CO)N1C[C@H](C)[C@H](CN(C)C)Oc2ccc(NS(=O)(=O)c3ccc(F)cc3)cc2CC1=O
    0.11	·	1	2
[6] CCOC(=O)c1[nH]cnc1C(=O)Nc1ccc(C)cc1
    -0.31	-0.7	-11	-18

More records
#	Structure	YB-1 expression	PD-1 reverse act	Shh pathway inh	MITF inhib
13	C[C@@H]1CN([C@H](C)CO)C(=O)c2cc(NC(=O)CCC(F)(F)F)ccc2O[C@@H]1CN(C)C(=O)Nc1ccccc1	-0.18	-0.7	·	6
14	C[C@@H]1CN([C@H](C)CO)C(=O)c2cc(NC(=O)Cc3cn(C)c4ccccc34)ccc2O[C@H]1CN(C)C(=O)NC1CCCCC1	-0.17	0.3	·	4
15	C[C@H](CO)N1C[C@H](C)[C@H](CN(C)Cc2ccc3c(c2)OCO3)Oc2ccc(NC(=O)Cn3cnnn3)cc2CC1=O	-0.019	·	-26	-2
16	C[C@H](CO)N1C[C@H](C)[C@H](CN(C)Cc2ccc(C(=O)O)cc2)Oc2c(NC(=O)C3CCCCC3)cccc2C1=O	-0.19	·	13	-3
17	Cc1ccc(S(=O)(=O)N(C)C[C@H]2Oc3ccc(NS(=O)(=O)c4cccs4)cc3C(=O)N([C@H](C)CO)C[C@@H]2C)cc1	-0.45	-1.4	·	-8
18	C[C@H]1CN([C@@H](C)CO)C(=O)Cc2cc(NS(=O)(=O)c3cn(C)cn3)ccc2O[C@@H]1CN(C)C	0.26	-0.1	-9	2
19	COc1cccc(Oc2coc3cc(OCC(N)=O)ccc3c2=O)c1	·	-0.3	·	-13
20	Cc1ccc(S(=O)(=O)Nc2ccc3c(c2)C(=O)N([C@H](C)CO)C[C@@H](C)[C@H](CN(C)S(=O)(=O)c2cccs2)O3)cc1	0.24	3.9	·	-15
21	COc1ccc(/C=C2/SC(=S)N(C)C2=O)cc1	0.25	0.2	·	-8
22	COc1ccc(Cl)cc1NC(=O)CSc1nnc(N)s1	·	-0.5	·	2
23	C[C@@H]1CN([C@@H](C)CO)C(=O)c2cccc(NC(=O)Nc3ccccc3)c2O[C@H]1CN(C)Cc1ccc(C(=O)O)cc1	0.046	-1.8	13	2
24	C[C@@H]1CN([C@H](C)CO)C(=O)Cc2cc(NS(=O)(=O)c3ccccc3)ccc2O[C@@H]1CN(C)Cc1ccc(C(=O)O)cc1	0.067	2.0	-7	-4

(further entries)
#	Structure	YB-1 expression	PD-1 reverse act	Shh pathway inh	MITF inhib
25	C[C@H]1CN([C@@H](C)CO)C(=O)c2cc(NC(=O)CCCN(C)C)ccc2O[C@H]1CN(C)Cc1ccc(Oc2ccccc2)cc1	-0.099	0.3	-13	3
26	CNC[C@@H]1Oc2c(NC(=O)C3CC3)cccc2C(=O)N([C@@H](C)CO)C[C@@H]1C	-0.6	·	-7	-2
27	COc1cccc(S(=O)(=O)NCc2ccc(C(=O)O)cc2)c1	·	1.0	·	-6
28	CN(CC(=O)Nc1cc(C(F)(F)F)ccc1Cl)S(=O)(=O)c1ccc2ccccc2c1	·	1.1	·	28
29	CNC[C@H]1Oc2ccc(NC(=O)Nc3ccc4c(c3)OCO4)cc2CC(=O)N([C@@H](C)CO)C[C@@H]1C	0.35	1.1	-4	-12
30	CC(C)S(=O)(=O)c1csc(NC(=O)Nc2cc(C(F)(F)F)cc(C(F)(F)F)c2)c1Cl	-0.28	-17	106*	65
31	C[C@H]1CN([C@@H](C)CO)C(=O)c2cc(NS(=O)(=O)c3cccs3)ccc2O[C@H]1CN(C)C(=O)Nc1ccc(C(F)(F)F)cc1	-0.19	4.8	·	-6
32	COc1ccc(NC(=O)N(C)C[C@H]2Oc3ccc(NC(=O)Cc4cn(C)c5ccccc45)cc3CC(=O)N([C@H](C)CO)C[C@H]2C)cc1	0.12	·	-22	2
33	Cc1ccc(S(=O)(=O)N(C)C[C@H]2Oc3ccc(NC(=O)C4CC4)cc3CC(=O)N([C@@H](C)CO)C[C@H]2C)cc1	0.2	0.1	-3	-1
34	COc1ccc(NC(=O)Nc2ccc3c(c2)C(=O)N([C@H](C)CO)C[C@H](C)[C@H](CN(C)Cc2ccccc2)OCCCC[C@@H](C)O3)cc1	-0.12	0.8	24	-17
35	CC(C)NC(=O)N(C)C[C@H]1Oc2c(NC(=O)C3CCOCC3)cccc2C(=O)N([C@@H](C)CO)C[C@@H]1C	0.11	·	5	8
36	CC1/C(=N/O)C[C@@H]2C[C@H]1C2(C)C (stereo partly drawn)	-0.52	0.1	-27	-5

Later entries.
#	Structure	YB-1 expression	PD-1 reverse act	Shh pathway inh	MITF inhib
37	COc1ccc(NC(=O)N(C)C[C@@H]2Oc3c(NC(=O)NC(C)C)cccc3C(=O)N([C@@H](C)CO)C[C@@H]2C)cc1	0.029	2.2	4	2
38	COc1cccc(NC(=O)CSc2ncnc3scc(-c4ccc(C)cc4)c23)c1	·	-0.8	·	32
39	C[C@H](CO)N1C[C@H](C)[C@H](CN(C)Cc2ccccc2)Oc2c(NC(=O)Nc3cccc4ccccc34)cccc2C1=O	-0.2	-0.2	-28	17
40	CCc1ccc(NC(=O)CSc2nc(C)cc(C)n2)cc1	·	-0.6	·	10
41	C[C@H](CO)N1C[C@H](C)[C@H](CN(C)C(=O)Nc2ccc(C(F)(F)F)cc2)Oc2c(NC(=O)c3cnccn3)cccc2C1=O	0.074	0.3	-46	-24
42	COc1ccccc1C1CCN(C(=O)c2ccco2)CC1	-0.23	-1.2	-3	19
43	CC(C)NC(=O)N(C)C[C@H]1OCCCC[C@@H](C)Oc2ccc(NC(=O)C3CCCCC3)cc2C(=O)N([C@H](C)CO)C[C@@H]1C	-0.04	-1.1	12	3
44	C[C@H]1CN([C@@H](C)CO)C(=O)Cc2cc(NC(=O)Nc3ccc(C(F)(F)F)cc3)ccc2O[C@@H]1CN(C)CC1CCCCC1	-0.19	0.7	1	-19
45	CCn1c(C)[n+](CC)c2ccccc21	0.19	2.6	-16	5
46	NCCCN(Cc1ccco1)C1CCCC1	·	-4.4	·	-10
47	C[C@@H]1CN([C@@H](C)CO)C(=O)Cc2cc(NC(=O)Nc3ccc(F)cc3)ccc2O[C@@H]1CN(C)Cc1ccc(C(=O)O)cc1	-0.072	1.9	-39	4
48	C[C@@H]1CCCCO[C@@H](CN(C)C)[C@@H](C)CN([C@H](C)CO)C(=O)c2cc(NC(=O)Cc3ccccc3)ccc2O1	-0.25	0.3	-10	8

Some values from the list:
Entry for #35 in YB-1 expression: 0.11
Entry for #16 in YB-1 expression: -0.19

New compounds follow:
#	Structure	YB-1 expression	PD-1 reverse act	Shh pathway inh	MITF inhib
49	C[C@H]1CN([C@@H](C)CO)C(=O)c2cc(NC(=O)Nc3ccc4c(c3)OCO4)ccc2O[C@H]1CN(C)Cc1ccc(Cl)c(Cl)c1	0.51	1.3	-36	-2
50	Cc1noc(C)c1S(=O)(=O)Nc1ccc2c(c1)C(=O)N([C@H](C)CO)C[C@H](C)[C@H](CN(C)S(=O)(=O)c1cccs1)O2	-0.24	-2.3	50	3
51	COc1cc(/C=C/C(=O)OC2C(COC(=O)c3cc(OC)c(OC)c(OC)c3)OC(OC3(CO)OC(CO)C(O)C3O)C(O)C2O)cc(OC)c1OC (stereo not drawn)	1.2	0.7	-6	9
52	Cc1noc(C)c1S(=O)(=O)Nc1ccc2c(c1)C(=O)N([C@H](C)CO)C[C@H](C)[C@H](CN(C)Cc1ccc(-c3ccccc3)cc1)O2	0.16	-2.1	30	-1
53	Cc1cc(C(=O)Nc2cccc3c2O[C@H](CN(C)C(=O)NC(C)C)[C@H](C)CN([C@@H](C)CO)C3=O)n(C)n1	-0.33	0.5	-25	-14
54	C[C@@H]1CCCCO[C@@H](CN(C)Cc2ccc(C(=O)O)cc2)[C@@H](C)CN([C@H](C)CO)C(=O)c2cc(NC(=O)Nc3ccc(F)cc3)ccc2O1	0.28	0.3	-13	-14
55	C[C@@H]1CN([C@H](C)CO)C(=O)c2cc(NC(=O)Nc3ccc(C(F)(F)F)cc3)ccc2O[C@H]1CN(C)S(=O)(=O)c1cccs1	0.74	-7.1	·	-16
56	COc1cc(CO)cc(Cl)c1OCc1cccc([N+](=O)[O-])c1	·	2.2	·	-31
57	Cc1noc(C)c1S(=O)(=O)N(C)C[C@H]1Oc2ccc(NS(=O)(=O)c3ccc(F)cc3)cc2CC(=O)N([C@H](C)CO)C[C@H]1C	0.28	-1.1	-33	-6
58	C[C@H]1CN([C@@H](C)CO)C(=O)c2cc(NC(=O)C3CC3)ccc2O[C@H]1CN(C)S(C)(=O)=O	-0.23	1.7	·	-10
59	COc1ccc(S(=O)(=O)N(C)C[C@@H]2Oc3ccc(NC(=O)Nc4ccc(C(F)(F)F)cc4)cc3C(=O)N([C@@H](C)CO)C[C@H]2C)cc1	0.019	-0.1	·	-9
60	O=C(OCC1OC(Oc2ccc(O)cc2COC(=O)C2(O)C(O)CCC(=O)C2O)C(O)C(O)C1O)c1ccccc1 (stereo not drawn)	0.088	2.5	11	-7

Going on with the list:
#	Structure	YB-1 expression	PD-1 reverse act	Shh pathway inh	MITF inhib
61	C[C@@H]1CN([C@H](C)CO)C(=O)c2cccc(NS(=O)(=O)c3ccc(F)cc3)c2O[C@H]1CN(C)S(=O)(=O)c1cccs1	-0.21	·	10	5
62	COc1ccc(S(=O)(=O)Nc2cccc3c2O[C@H](CN(C)C(=O)Nc2cccc4ccccc24)[C@H](C)CN([C@@H](C)CO)C3=O)cc1	0.064	·	46	5
63	C[C@@H]1CN([C@@H](C)CO)C(=O)c2cccc(NC(=O)c3nc4ccccc4s3)c2O[C@H]1CN(C)S(=O)(=O)c1cccs1	-0.58	·	60	46
64	COc1cc(O)c2c(c1)O[C@@H](c1ccccc1)CC2=O	-0.69	2.7	-21	-9
65	O=C(O)c1ccccc1Sc1ccccc1S(=O)(=O)NC1CCCCC1	0.18	0.8	-1	-6
66	Cc1noc(C)c1NC(=O)Nc1ccc2c(c1)CC(=O)N([C@H](C)CO)C[C@H](C)[C@H](CN(C)Cc1ccc(Oc3ccccc3)cc1)O2	-1.3	0.6	17	5
67	COc1ccc(NC(=O)Nc2ccc3c(c2)C(=O)N([C@H](C)CO)C[C@@H](C)[C@@H](CN(C)C(=O)Nc2ccc4c(c2)OCO4)O3)cc1	-0.00033	0.6	7	-21
68	O=C(O)CCc1ccc(-c2ccc(F)cc2)n1-c1cccc(C(=O)O)c1	·	2.9	·	-54
69	C[C@@H]1CN([C@H](C)CO)C(=O)c2cccc(NC(=O)C3CCCCC3)c2O[C@@H]1CN(C)Cc1ccc(Oc2ccccc2)cc1	0.21	-1.6	12	-2
70	Cc1ccc(N(C(=O)COc2ccccc2[N+](=O)[O-])C2C=CS(=O)(=O)C2)cc1 (stereo not drawn)	·	-1.3	·	3

These rows are one share of the data; the hit share may differ from the screen's.
